Mtb H37Rv – M. tuberculosis H37Rv growth inhibitors, H37Rv strain (AID 1626); 0.95% of 220,000 active; M. tuberculosis H37Rv growth inhibition; higher % means a stronger effect; one-dose inhibition, % at 10 µM; IC50 in µM for titrated hits;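 active = confirmed in a dose series; inconclusive = inhibition above 80% but not taken into the dose series; inactive = below 80% or under 30% at every dose of the series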;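 note: bacteria incubated seven days before Alamar blue readout; 0% = bacteria only wells and 100% = bacteria with antibiotic wells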
YopH PTP inh – YopH (Yersinia) phosphatase inhibition; fluorescence Ex485/Em525; inhibition, %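 (about 10 µM by stock and volumes)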; 0.16% of 140,000 active; AID 898;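 active = inhibition of 50% or more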;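 note: controls were vehicle for no effect and minimum signal wells for full effect; inactives centre near -20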
Arbovirus inh – antivirals against arbovirus infection; arbovirus infection cell-based antiviral screen; inhibition, % at 10 µM; AID 1251; 0.37% of 200,000 active;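 active = inhibition from about 30%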;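 note: bluetongue infection of BSR cells; cell survival read as ATP light after 72 h; 0% = infected wells without compound and 100% = uninfected wells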
Mtb bLac sens – beta-lactam sensitization of Mtb H37Rv; M. tuberculosis H37Rv growth with meropenem, percent inhibition; hits of this screen are not shown here; inhibition, % at 25 µM; 0.27% of 330,000 active; AID 434955;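 active = about 74% or more and at least 40 points above the plate without the antibiotic, then above 30% in a dose series; inconclusive = first-round hits that could not be retested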;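 note: growth measured after seven days incubation then overnight dye step; 0% = bacteria only wells and 100% = bacteria with antibiotic; twin plates without the antibiotic show which effects depend on it; some results filed as inactive read as strong as hits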
RecA splice inh – Mtb RecA intein splicing inhibition. cell-free RecA intein splicing, fluorescence. AID 2221. 0.75% of 290,000 active. inhibition, %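 (about 9 µM by stock and volumes)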; in the data active = inhibition above about 30%; inconclusive = no clear call, values can overlap the other calls;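 note: 0% = vehicle wells and 100% = reference inhibitor control wells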
Target sequence (P9WHJ3 whole entry, looked up, canonical isoform): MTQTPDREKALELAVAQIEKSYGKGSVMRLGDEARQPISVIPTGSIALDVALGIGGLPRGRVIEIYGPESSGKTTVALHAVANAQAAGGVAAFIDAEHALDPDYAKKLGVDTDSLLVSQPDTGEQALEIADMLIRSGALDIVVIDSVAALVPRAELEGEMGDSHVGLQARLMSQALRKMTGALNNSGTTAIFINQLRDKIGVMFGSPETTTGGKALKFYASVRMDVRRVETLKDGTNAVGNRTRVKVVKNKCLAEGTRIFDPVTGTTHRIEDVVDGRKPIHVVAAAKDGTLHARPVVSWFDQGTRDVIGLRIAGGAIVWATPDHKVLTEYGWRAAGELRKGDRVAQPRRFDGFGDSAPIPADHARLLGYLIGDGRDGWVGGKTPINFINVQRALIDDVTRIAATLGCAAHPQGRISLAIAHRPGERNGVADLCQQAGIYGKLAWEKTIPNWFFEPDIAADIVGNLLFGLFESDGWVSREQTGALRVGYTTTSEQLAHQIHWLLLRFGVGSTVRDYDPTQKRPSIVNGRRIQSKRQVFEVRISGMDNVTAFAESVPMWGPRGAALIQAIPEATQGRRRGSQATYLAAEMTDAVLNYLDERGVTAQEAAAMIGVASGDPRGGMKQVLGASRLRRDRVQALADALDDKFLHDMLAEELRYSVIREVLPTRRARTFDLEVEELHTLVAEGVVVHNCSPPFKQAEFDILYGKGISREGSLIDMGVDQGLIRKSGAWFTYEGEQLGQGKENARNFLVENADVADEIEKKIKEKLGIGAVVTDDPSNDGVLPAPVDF
Arbovirus inh repeat – second read-out of Arbovirus inh, no call of its own (marks repeat the call); inhibition, %; measured here: 10K subset replicate screen; many hits read low in the repeat;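 first of two repeat runs on a subset; 0% = infected and 100% = uninfected wells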
The depositor's hits bear a star; ? = inconclusive; · = no result given. Not all compounds are listed; the hit share may differ from the screen's.

SMILES | Mtb H37Rv | YopH PTP inh | Arbovirus inh | Mtb bLac sens | RecA splice inh | others
CCCc1ccc(-c2cc(C(=O)NCCc3ccc(S(N)(=O)=O)cc3)c3ccccc3n2)cc1 | 11% | -37 | -2 | 44 | -2.0
COc1cc(S(=O)(=O)n2nc(C)cc2C)c(OC)cc1Cl | -10% | -18 | 7 | -2 | 10
COc1ccc(Cl)cc1NC(=O)C(C)OC(=O)c1ccc(NS(=O)(=O)c2ccc3[nH]c(=O)[nH]c3c2)cc1 (centres undefined) | 8% | -16 | 9 | 79 | -0.5
C=CCn1cccc(C(=O)Nc2cc(OC)c(OC)c(OC)c2)c1=O | 5% | · | 16 | 1 | -1.3
O=C(NNC(=O)c1cc2ccccc2cc1O)c1cccs1 | · | · | · | 9 | -3.5
CCC1(C)CC(CC(=O)O)(c2ccccc2OC)CCO1 (centres undefined) | 3% | -22 | 3 | -3 | 0.5
C=CCNC1=C(Cl)C(=O)N(c2ccccc2Cl)C1=O | 16% | -62 | 6 | 4 | 20
Cc1ncc(CN2CCCC(C(=O)Nc3ccc(-c4cccc(F)c4)cc3)C2)s1 (centres undefined) | · | · | · | 69 | 3.1
CC(NC(=O)CN(C)CC(=O)Nc1ccc(F)c(F)c1F)c1ccccc1 (centres undefined) | -6% | · | 24 | -3 | ·
Cc1ccc(O)c(NC(=O)CCCC(=O)O)c1 | -3% | -30 | -2 | 3 | -5.5
COc1cc(C2/C(=C(\O)c3ccc4c(c3)OCCO4)C(=O)C(=O)N2Cc2ccco2)cc(OC)c1OC (centres undefined) | · | · | · | -7 | -1.5
COc1ccc(S(=O)(=O)Nc2ccc(F)c(F)c2)cc1C(=O)N1CCOCC1 | · | · | · | 3 | 5.3

Gathered by group: the entries above with a Cl atom (3)
SMILES | Mtb H37Rv | YopH PTP inh | Arbovirus inh | Mtb bLac sens | RecA splice inh | others
COc1cc(S(=O)(=O)n2nc(C)cc2C)c(OC)cc1Cl | -10% | -18 | 7 | -2 | 10
COc1ccc(Cl)cc1NC(=O)C(C)OC(=O)c1ccc(NS(=O)(=O)c2ccc3[nH]c(=O)[nH]c3c2)cc1 (centres undefined) | 8% | -16 | 9 | 79 | -0.5
C=CCNC1=C(Cl)C(=O)N(c2ccccc2Cl)C1=O | 16% | -62 | 6 | 4 | 20

A portion from further up, for reference:
SMILES | Mtb H37Rv | YopH PTP inh | Arbovirus inh | Mtb bLac sens | RecA splice inh | others
COc1cc(C2/C(=C(\O)c3ccc4c(c3)OCCO4)C(=O)C(=O)N2Cc2ccco2)cc(OC)c1OC (centres undefined) | · | · | · | -7 | -1.5
COc1ccc(S(=O)(=O)Nc2ccc(F)c(F)c2)cc1C(=O)N1CCOCC1 | · | · | · | 3 | 5.3

Further compounds:
SMILES | Mtb H37Rv | YopH PTP inh | Arbovirus inh | Mtb bLac sens | RecA splice inh | others
COc1cc(OC)c(OC)cc1CN1CCCC(C(=O)c2sccc2C)C1 (centres undefined) | 0% | · | · | -3 | -0.5
Cc1nn(C)cc1/C=N\NC(=O)Cc1ccc([N+](=O)[O-])cc1 | -3% | -11 | 5 | 2 | -9.8
Cc1cc(C)cc(NC(=O)CSc2nc3c(c(=O)n2C)SC(C)C3)c1 (centres undefined) | -1% | -31 | 2 | 6 | 1.8 | Arbovirus inh repeat=0
Cc1ccc(-c2nnc(SCC(=O)N/N=C/c3c(C)nn(-c4ccccc4)c3C)n2-c2ccc(C)cc2)cc1 | 16% | -6 | -3 | 8 | -7.8
Brc1ccc(OCCCOc2cccc3cccnc23)cc1 | · | · | · | 15 | 18
Cc1ccccc1-c1nc2ccccc2c(=O)n1C1CCS(=O)(=O)C1 (centres undefined) | -4% | 15 | -2 | -2 | -1.6
CCC(C)NC(=O)c1ccc(CSCc2cccc(F)c2)o1 (centres undefined) | 2% | -25 | 0 | -4 | ·
O=C1NC(c2ccc(O)cc2)Nc2ccccc21 (centres undefined) | · | · | · | 0 | -5.3
CCCC(=O)NC(=S)Nc1cccc2c(O)cccc12 | 8% | · | -8 | -3 | -1.3
Cc1c(C(=O)Nc2ccc3c(c2)OCCO3)sc2ncnc(N3CCCCC3C)c12 (centres undefined) | · | · | · | 91 | 2.3
CCOC(=O)C1CCN(c2nc(-c3ccccc3)nc3c2oc2ccccc23)CC1 | 25% | -28 | -11 | 46 | 3.7
COc1ccc(CN2C(=O)c3ccccc3C2C(=O)NCC2CCCO2)c(OC)c1 (centres undefined) | -4% | -28 | 5 | -7 | -13
S=C(Nc1ccc(Oc2ccc(NC(=S)NC3CCCCC3)cc2)cc1)NC1CCCCC1 | 3% | -33 | 8 | 0 | 2.3
CCOc1ccc2nc(C)cc(Nc3ccc4c(c3)OCCO4)c2c1 | 20% | -10 | -44 | 7 | -10
CC(C)(C)n1nnnc1C(c1ccccc1F)N1CCN(C2CCCC2)CC1 (centres undefined) | -8% | -37 | 0 | · | -2.5
Cc1ccc(S(=O)(=O)Nc2cccnc2)cc1 | 3% | -5 | 6 | 0 | ·
CCOC(=O)c1ccc2c(c1)N(Cc1ccccc1C)C(=O)c1ccccc1S2=O (centres undefined) | · | -35 | -8 | · | -0.6
Cc1cc(S(=O)(=O)NCC(c2ccc3c(c2)OCO3)N2CCOCC2)ccc1F (centres undefined) | · | · | · | -13 | -1.7
CCC(=O)N1CCN(c2ccc(NC(=O)c3ccc(N4CCOCC4)c([N+](=O)[O-])c3)cc2)CC1 | · | · | · | -5 | 3.1
CC(=O)NC(CC(=O)NC1CCCc2ccccc21)c1ccccc1 (centres undefined) | · | · | · | 0 | 0.9
C/C(=N\NC(=O)Cn1ccc(C(F)(F)F)n1)c1ccc2c(c1)OCO2 | 3% | · | -1 | 0 | ·
Cc1ccc(C2/C(=C(/O)c3cnn(-c4ccccc4)c3C)C(=O)C(=O)N2CCN2CCOCC2)o1 (centres undefined) | 2% | 5 | -2 | -10 | -4.8
C=CCOc1ccc2c(CC)cc(=O)oc2c1C | 2% | -5 | -6 | -4 | 2.0
C=CCc1ccccc1OCC(O)CN1CCOCC1 (centres undefined) | · | · | · | -15 | 0.0
CCc1ccc(Nc2n[n+](-c3ccccc3)c(/C=C/c3ccccc3)s2)cc1 | · | · | · | -1 | 4.9
CCNC(=S)N(CCN(CC)CC)Cc1cc2cc3c(cc2[nH]c1=O)OCCO3 | · | · | · | 2 | -4.5
N=c1c2c3c(sc2ncn1N)CCC3 | · | · | · | 3 | -0.7
Cc1cc(C)cc(C(=O)NCC(=O)N2CCN(c3cccc(Cl)c3)CC2)c1 | · | · | · | 2 | 1.0
Cc1cc(S(=O)(=O)N2CCN(c3ccccn3)CC2)c(C)cc1Cl | · | · | · | 0 | 1.0
COCC(=O)N(Cc1cc2cc(C)ccc2[nH]c1=O)c1ccc(C)c(C)c1 | · | · | · | 4 | -4.0
Cn1nnnc1SCC(=O)N1CCc2ccccc21 | -2% | · | · | -7 | -1.7
NS(=O)(=O)c1ccc(CCNC(=O)CN2CCN(Cc3cccc(C(F)(F)F)c3)CC2)cc1 | · | · | · | -6 | -2.7
O=C1CC(c2ccccc2)=Nc2ccccc2N1Cc1ccccc1 | 13% | · | -4 | 8 | 6.2
CC1(C)NC(=O)N(CC(=O)OCC(=O)Nc2sccc2C#N)C1=O | 6% | · | 6 | -7 | 4.9
O=C(NCCc1ccc(Cl)cc1)c1ccc(CNc2c(N3CCOCC3)c(=O)c2=O)cc1 | 2.8µM* | · | · | 100 | -0.9
C#CCOCCOCCOCCNc1nc(N2CCN(C(=O)[C@H](Cc3ccc(O)cc3)n3cc([C@@H](N)C(C)CC)nn3)CC2)nc(N2CCN(C(=O)[C@H](Cc3cc4ccccc4[nH]3)n3cc([C@@H](N)C(C)CC)nn3)CC2)n1 (some centres undefined) | ? | · | -10 | 99 | 2.1
CN(C)c1ccc(CN(C(=O)/C=C/c2ccccc2Cl)C2CCS(=O)(=O)C2)cc1 (centres undefined) | 10% | · | · | -3 | 1.2
CC(C)(O)C#Cc1ccc(CN2CCN(Cc3ccccc3)C(CCO)C2)cc1 (centres undefined) | 2% | · | -3 | 2 | 1.3
NC(=O)C1(N2CCCCC2)CCN(S(=O)(=O)c2cc(Cl)ccc2Cl)CC1 | 3% | -36 | 10 | 0 | 1.7 | Arbovirus inh repeat=9
CCN(CC)CCN(C(=O)c1ccc2c(c1)CCCC2)c1nc2ccc(F)cc2s1 | 2% | · | 9 | -4 | 14
Cc1cc(-c2ccccc2)n(-c2ccc(C(=O)NC(C)C)cc2)n1 | -4% | -8 | -11 | 7 | -2.1
CSc1nc(N(C)C)nc(N(C)C#N)n1 | 3% | · | 0 | -4 | 1.2
NS(=O)(=O)c1ccc(CCNS(=O)(=O)c2ccccc2)cc1 | 7% | · | 9 | 0 | -1.1
COc1ccccc1-n1ccnc1SCC(=O)NC(C)(C)C | 2% | · | -5 | -11 | ·
Cc1cnc(NC(=O)Nc2ccc(OCc3ccccc3)cc2)c(Br)c1 | · | · | · | 53 | 1.9
O=C(Cc1ccccc1)OCCN1CCCCC1 | -5% | -16 | -1 | -5 | -0.5
CCOC(=O)c1c(C)[nH]c(C)c1C(=O)CSc1nnc(-c2ccncc2)n1C | · | -19 | 1 | -5 | 1.3
COc1ccc(C(C)=O)cc1COC(=O)c1cccc(N(C)C)c1 | -11% | -21 | -5 | -8 | -0.3
O=C(NCC1CCCO1)c1nn2c(C(F)(F)F)cc(-c3ccc(Br)o3)nc2c1Br (centres undefined) | · | · | · | 1 | -3.4
CCOc1ccccc1NC(=O)CSc1nc2cc(O)ccc2c(=O)n1-c1ccc(OC)c(OC)c1 | · | · | · | -5 | -11
Oc1ccc2oc3c(c2c1C=NCc1ccncc1)CCCC3 | 1% | · | · | 4 | -1.2
COc1ccc(C)cc1N(CC(=O)N1CCOCC1)S(C)(=O)=O | · | · | · | -2 | -0.1
O=C(NCc1cccc(Cl)c1)C1CCC(=O)N(CCN2CCOCC2)C1 (centres undefined) | · | · | · | 3 | -1.9
Cn1c(Cn2nnc3ccccc32)nnc1SCC(=O)N1CCc2ccccc21 | -10% | -1 | 0 | -5 | 2.2
CC(C)Oc1ccccc1C(=O)NC(CO)C(=O)O (centres undefined) | -13% | · | 4 | 0 | -3.3
COc1cccc(N2CCN(S(=O)(=O)c3ccc4nc(-c5ccccc5)[nH]c4c3)CC2)c1 | -9% | 0 | 8 | -9 | -1.1
Cn1nccc1C(=O)Nc1cc(Cl)ccc1Cl | · | · | · | -5 | 0.9
CCOC(=O)c1[nH]c2ccccc2c1NC(=O)c1ccc(S(=O)(=O)N2CCCCC2)cc1 | · | -15 | -10 | 4 | -3.8
COc1ccccc1N1CCN(C(=O)c2ccc3c(c2)CCN3S(=O)(=O)c2ccccc2)CC1 | · | · | · | 8 | 6.0
S=C(NC1CCCCC1)N1CCc2[nH]c3ccccc3c2C1 | · | · | · | 0 | -1.9
(next part)
SMILES | Mtb H37Rv | YopH PTP inh | Arbovirus inh | Mtb bLac sens | RecA splice inh | others
C/C(Cc1ccccc1)=N\NC(=O)c1cc(C(C)(C)C)[nH]n1 | -5% | · | 6 | -4 | -3.3
Oc1cc2ccccc2cc1-c1n[nH]c(=S)n1Cc1ccco1 | 8% | · | 8 | 7 | -5.9
O=C(Cc1ccccc1)c1ccc2c(c1)OCCO2 | 13% | · | -4 | 5 | 3.1
CC(C)c1ccccc1NC(=O)COC(=O)Cc1ccsc1 | -3% | -13 | 6 | -1 | -0.8
CCOc1ccccc1NC(=O)CSc1nnc(Cn2c(=O)sc3ccccc32)n1C | 3% | -27 | -1 | 1 | · | Arbovirus inh repeat=-1
Cc1ccc(-c2cc(C(=O)OCC(=O)Nc3ncc(C(F)(F)F)cc3Cl)c3ccccc3n2)cc1 | -5% | -26 | -22 | 0 | 1.9
O=C(O)CSCc1cn2cc(Cl)ccc2n1 | -6% | -29 | 7 | 3 | -6.3
Cc1ccc(C(=O)NNC(=O)C2CCCN(c3ncccn3)C2)cc1 (centres undefined) | -6% | -34 | 4 | -1 | -0.7
CCOC(=O)C1C(=O)NC(SCC(=O)OC)=C(C#N)C1c1ccccc1OCC (centres undefined) | -5% | -1 | 4 | -3 | -1.9
COC(=O)CC1Oc2ccc(C)cc2NC1=O (centres undefined) | -4% | -36 | 7 | ? | 0.0 | Arbovirus inh repeat=5
Cc1ccc(C(=O)Nc2ccc3c(c2)C(=O)N(C)C3=O)c(C)c1 | · | · | · | -1 | 1.4
OC(COc1ccc(CN2CCSCC2)cc1)CN1CCCCC1 (centres undefined) | 4% | · | 8 | -7 | 1.8
CCOc1cc(S(=O)(=O)N(Cc2ccccc2)Cc2ccccc2)c(OCC)cc1-n1cnnn1 | · | -6 | -10 | · | 1.3
COC(=O)c1ccc(CS(=O)(=O)c2ccc(C)cc2)o1 | · | · | · | -1 | -1.9
O=c1cc(-c2ccc([N+](=O)[O-])cc2)c2ccc(O)cc2o1 | -1% | · | 6 | -2 | 0.3

High-throughput results from PubChem.
